Screens deposited in PubChem by ICCB-Longwood Screening Facility, Harvard Medical School.
CapD inh – Bacillus anthracis CapD inhibitors, primary screen, biochemical, fluorescence intensity; purified CapD enzyme, fluorescence intensity read-out; hits give low values; some hits fall short of the stated cut; z-score (test concentration not listed); 140,000 tested, 0.23% active; AID 492967, 2010;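 active means z-score under -4 in either of two replicates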;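 further: stock transfer was 100 nL into about 40 µL; score is relative to mean and spread of the plate; one replicate is shown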
AID504770 – growth inhibition of E. coli YBA685, primary screen, V. cholerae RctB inhibitors; 130,000 tested, 0.27% active; z-score (test concentration not listed); E. coli YBA685 rctB-dependent plasmid, OD600 growth, 3 h; hits give low values;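 active means z-score under -2 on both plates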;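 further: wells of about 30 µL received 100 nL stock; score is relative to mean and SD of the test wells; the first replicate is given; strong numbers were not always called active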
* marks the source's active call; other numbers are inactive results; x = not tested or not shown. Rows are unselected; overall some 0.37% were active at least once.

SMILES | CapD inh | AID504770
Cc1ccc(S(=O)(=O)NC(=O)NCC2CCN(S(=O)(=O)c3ccccc3)CC2)cc1 | -1.1 | -0.3
CCn1c(=O)c(C(C)Nc2ccco2)c(O)c2ccccc21 (stereo not drawn) | 1.5 | 0.05
C=CCSc1nc(N)c(C#N)c(-c2ccc(C)cc2)c1C#N | 2.5 | 0
C(=N\Nc1nc(-c2ccc3c(c2)OCCO3)cs1)/c1ccc2c(c1)OCO2 | x | -0.8
COc1ccc(-c2c(C#N)c(N)nc3sc(C(=O)c4ccccc4)c(N)c23)cc1OC | -1.4 | x
COc1ccc(CN2CCN(C(=O)c3ccc([N+](=O)[O-])cc3)CC2)cc1Br | 0.06 | x
COc1ccc(S(=O)(=O)N2CCCCCC2)cc1C(=O)OC(C)C(N)=O (stereo not drawn) | x | -0.3
COc1cccc(OCc2ccccc2Cl)c1C#N | -0.04 | x
Cc1nnc2c(N3CCOCC3)nc3ccccc3n12 | 0.11 | -0.15
CC(Cc1cccs1)NCc1ccccc1 (stereo not drawn) | x | -0.65
O=C(Nc1cccc(S(=O)(=O)c2cccc(NC(=O)C3CCCO3)c2)c1)C1CCCO1 (stereo not drawn) | x | -0.45
Cc1nc2ccccc2n1CC(=O)N(c1ccccc1)C(C)C | 0.57 | -1.1
N#CCCSc1ccccc1NC(=O)/C=C/C(=O)O | -0.48 | x
CCOC(=O)c1c(C)[nH]c(C)c1C(=O)COC(=O)c1ccncc1 | x | -0.45
CSc1nc2ccc(S(=O)(=O)Nc3ccc4c(c3)COC4=O)cc2s1 | 0.03 | -0.7
CSc1nnc(Cc2sc(-c3ccccc3)nc2-c2ccccc2)o1 | -1.1 | x
O=C(Nc1cccc(Cl)c1Cl)c1cc(S(=O)(=O)N(Cc2ccco2)CC2CCCO2)ccc1F (stereo not drawn) | -0.24 | x
COc1ccc(C2=NNC(=O)c3ccccc3C2)cc1 | -0.045 | -0.3
COc1cc(OC)cc(C(=O)Nc2ccnn2C2CCCCC2)c1 | x | 0.55
CCOC(=O)c1ccccc1NC(=O)CSc1ncccn1 | 1.7 | 0.3
Cc1sc2nc(SCC(=O)N(CCO)CCO)nc(N)c2c1C | x | -0.1
N#CC1(C#N)[C@@H]2c3ccccc3C=CN2[C@@H](C(=O)c2cccs2)[C@@H]1c1ccccc1C(F)(F)F | 9.2 | x
CCc1ccc(C2C(C#N)=C(N)Oc3n[nH]c(-c4cc(OC)c(OC)c(OC)c4)c32)cc1 (stereo not drawn) | -0.07 | x
O=c1[nH]nc(Sc2ccc(C(F)(F)F)cn2)n1C1CCCCC1 | 0.14 | -0.15
CC(C)CCNS(=O)(=O)c1cccc2nsnc12 | -0.29 | 0.05
CCOC(=O)N1CCC(N2Cc3cccc(C(=O)NC4CCN(Cc5ccccc5)CC4)c3C2=O)CC1 | -0.39 | -0.1
CSc1ccc(CCNC(=O)c2ccc3c(=O)n4c(nc3c2)CCCCC4)cc1 | -0.3 | 2
Cc1cccc(C(=O)Nc2nnc(/N=C/c3ccc(Br)s3)s2)c1 | 0 | -0.85
CC1S/C(=N\Nc2ccc(Cl)cc2)NC1=O (stereo not drawn) | -0.56 | -0.5
CC(=O)Nc1ccc(N2C(=O)CSC2c2cccc(Br)c2)cc1 (stereo not drawn) | 0.32 | x
c1ccc(CN2CCC3(CC2)Nc2ccccc2S3)cc1 | 0.36 | 0.2
Nc1nnc2c([nH]c3ccccc32)c1-c1ccccc1 | 29 | -0.85
CCc1nn(CC(=O)N2CCc3ccccc32)c(=O)c2cccn12 | -0.35 | -0.25
CCOc1ccc(C(=O)NNC(=O)OCc2c(F)cccc2Cl)cc1 | 0.55 | x
CC1=C(C(=O)OCCOc2ccccc2)C(c2ccc(OCc3ccccc3)cc2)NC(=O)N1C (stereo not drawn) | -0.01 | x
CCN(CC)P(=S)(N(CC)CC)N(CC)CC | 0.18 | -0.95
CCOC(=O)N1CCN(C(=O)c2c[nH]c3ccc(S(=O)(=O)N(C)c4ccc(OCC)cc4)cc3c2=O)CC1 | -0.12 | x
COCCNC(=O)c1cc2ccccc2o1 | x | 0.5
O=C(c1ccccc1)c1ccc2nc(-c3ccccc3)c(-c3ccccc3)nc2c1 | -0.42 | x
O=C(CSc1cc(C(F)(F)F)cc(C(F)(F)F)c1)Nc1ccccc1F | 0.22 | x
Cc1ccc(C2CC(c3c(F)cccc3Cl)n3nc(N)nc3N2)cc1 (stereo not drawn) | 81 | -0.65
O=C1NC(=Nc2ccccc2Cl)S/C1=C/c1ccc([N+](=O)[O-])cc1 | -2 | x
Cc1ccc(CSc2nnc(-c3ccc(C(F)(F)F)cn3)s2)cc1 | -0.49 | 0.55
Cc1sc2nc(C(C)OC(=O)c3ccc4c(c3)C(=O)N(Cc3ccco3)C4=O)[nH]c(=O)c2c1C (stereo not drawn) | x | 0.9
S=C(NC1=NCCS1)Nc1ccccc1 | -0.71 | 0.15
CCN(CC)CCCCCCOC(=O)Nc1cc(C(C)(C)C)ccc1O | 0.1 | x
COc1ccccc1C(=O)N/C(=C\c1ccc2c(c1)OCO2)C(=O)Nc1ccc(C)cc1 | 4.1 | x
COc1ccc(Oc2ccc(N)cn2)cc1 | 5.3 | x

Structural class: the compounds so far with a CF3 group (4)
SMILES | CapD inh | AID504770
N#CC1(C#N)[C@@H]2c3ccccc3C=CN2[C@@H](C(=O)c2cccs2)[C@@H]1c1ccccc1C(F)(F)F | 9.2 | x
O=c1[nH]nc(Sc2ccc(C(F)(F)F)cn2)n1C1CCCCC1 | 0.14 | -0.15
O=C(CSc1cc(C(F)(F)F)cc(C(F)(F)F)c1)Nc1ccccc1F | 0.22 | x
Cc1ccc(CSc2nnc(-c3ccc(C(F)(F)F)cn3)s2)cc1 | -0.49 | 0.55

Continuation:
SMILES | CapD inh | AID504770
CC1(C)C(=O)N(CC(O)CNc2ccccc2)C(=O)N1CN1C(=O)N(CC(O)CNc2ccccc2)C(=O)C1(C)C (stereo not drawn) | 0.35 | -0.95
O=C(Oc1ccccc1N1CCOCC1)c1sccc1Br | -0.49 | 0.15
CCN1CCN(c2nc3ccccc3s2)CC1 | x | -0.2
Cc1cc(C)n(CCCNC(=O)CSc2nnc3n2CCCCC3)n1 | x | -0.3
O=[N+]([O-])c1ccccc1-n1cccc1 | 0.005 | x
COCC(C)n1c(COc2ccccc2F)nnc1SCC(=O)Nc1nc(C)cs1 (stereo not drawn) | x | -0.8
CN1CCc2c(sc(N)c2C(=O)O)C1 | x | -0.35
CCCOC(=O)c1c(NC(=O)OC)sc2c1CCCCC2 | -0.32 | -0.95
CC(C)(C)C1CCC2(CC1)NC(CO)(CO)CO2 (stereo not drawn) | 0.36 | 0.4
Clc1ccc(CN2CCN(c3cccc4[nH]ccc34)CC2)c(Cl)c1 | -0.31 | 2.5
COc1ccc(-c2noc(CCC(=O)NCCN3CCN(c4ccccc4F)CC3)n2)cc1 | 10 | -2.1
O=C(c1ccc(-c2ccccc2F)cc1)N1CCOCC1 | 0.28 | x
CC(=O)Oc1cc(OC(C)=O)cc(OC(C)=O)c1 | x | 0.65
COc1cc(/C=C2/N=C(c3ccccc3)NC2=O)cc(OC)c1OC | -0.55 | -0.15
CS(=O)(=O)c1ccc(-n2cc(-c3ccc(C(=O)N4CCc5ccccc5C4)cn3)cn2)cc1 | 1 | x
CCOc1ccc(CC2=NCCc3cc(OCC)c(OCC)cc32)cc1OCC | -0.35 | x
O=P(Cc1ccccc1NCCCl)(c1ccccc1)c1ccccc1 | -0.06 | x
Cn1c(C(F)(F)F)nc2c(=O)oc3ccccc3c21 | 73 | 0.5
CCN1C(=O)c2ccccc2S(=O)c2ccc(C(=O)NCc3ccccn3)cc21 (stereo not drawn) | -0.78 | 0.7
O=C1NC(=O)C2C3C=CC(O3)C12 (stereo not drawn) | -0.14 | -3.5*
CC(C)(C)NC(=O)CCc1nc2ccccc2s1 | x | 0.95
CCN1CCN(C(=O)c2cccc(F)c2F)CC1 | x | -0.3
O=C(c1ccccc1C(F)(F)F)N1CCN(c2ccccc2F)CC1 | x | -0.15
O=C(Cc1ccsc1)NNC(=O)OCc1cc2c(cc1[N+](=O)[O-])OCO2 | -0.38 | x

Seven entries already listed, sorted by number of heavy atoms, descending.
SMILES | CapD inh | AID504770
CS(=O)(=O)c1ccc(-n2cc(-c3ccc(C(=O)N4CCc5ccccc5C4)cn3)cn2)cc1 | 1 | x
CCOc1ccc(CC2=NCCc3cc(OCC)c(OCC)cc32)cc1OCC | -0.35 | x
O=C(Cc1ccsc1)NNC(=O)OCc1cc2c(cc1[N+](=O)[O-])OCO2 | -0.38 | x
O=C(c1ccccc1C(F)(F)F)N1CCN(c2ccccc2F)CC1 | x | -0.15
Cn1c(C(F)(F)F)nc2c(=O)oc3ccccc3c21 | 73 | 0.5
CCN1CCN(C(=O)c2cccc(F)c2F)CC1 | x | -0.3
O=C1NC(=O)C2C3C=CC(O3)C12 (stereo not drawn) | -0.14 | -3.5*

(continued)
SMILES | CapD inh | AID504770
CCCCC(=O)N1CCN(c2cc(C)c(C(=O)CC)cc2F)CC1 | -0.055 | 0.85
O=C(Nc1ccc(OC(F)(F)F)cc1)C1OC2OC3(CCCCC3)OC2C2OC3(CCCCC3)OC12 (stereo not drawn) | -0.39 | x
COc1ccc(Cn2nnnc2CN2CCN(c3cc(Cl)ccc3C)CC2)cc1 | x | -0.2
COc1ccc(CCNC(=O)CSc2ccc(C)cc2)cc1OC | -0.14 | 0.1
Cc1ccc2[nH]c(=O)c(C(c3nnnn3C3CCCC3)N(C)C3CCCCC3)cc2c1 (stereo not drawn) | x | -0.95
O=c1c2ccccc2nc(CN2CCOCC2)n1-c1ccccc1F | x | 0.25
Cc1ccccc1-n1cnnc1SCC(=O)NC1(C#N)CCCC1 | x | 0.65
Cc1nnc2ccc(N3CCN(C(=O)c4ccccc4)CC3)nn12 | -1.1 | -0.2
CC(Oc1ccc(OCc2ccccc2)cc1)C(=O)O (stereo not drawn) | -0.095 | -0.2
O=C(c1cccc(S(=O)(=O)N2CCCC2)c1)N(CC1CCCO1)c1nc2ccccc2s1 (stereo not drawn) | x | -0.15
CCc1ccccc1Nc1nc(N)nc(CSCC(=O)c2cc(C)n(C)c2C)n1 | x | 0.8
c1ccc2c(c1)N=C(NNC1=Nc3ccccc3SC1)CS2 | -0.15 | -0.45
C=C(C)CC(NC(C)c1ccccc1)c1ccco1 (stereo not drawn) | 0.18 | -0.5
CCCCn1nnc(NC(=O)CSc2ccc(Cl)cc2)n1 | -0.23 | 1.2
O=C1CCCc2cc(S(=O)(=O)NC3CCCCCC3)ccc2N1 | -0.28 | -1.4
COc1ccc(-c2nc(-c3ccc(OC)c(OC)c3)[nH]c2-c2ccc(OC)cc2)cc1 | 79 | x
Cc1cc(C)c2nc3s/c(=C\c4ccc(-c5ccccc5[N+](=O)[O-])o4)c(=O)n3c2c1 | -0.76 | x
N#CCCN1CCNCC1 | x | -0.2
O=C(OCc1cccs1)C1CCCCC1 | 0.82 | 0.05
FC(F)(F)c1ccccc1CNc1ccc(-c2nc3ncccc3o2)cc1 | x | 2.5
CC1CCCC(NC(=O)c2ccc3c(=O)n(CC4CCCO4)c(=O)[nH]c3c2)C1C (stereo not drawn) | 7.2 | -0.6
COc1ccc(C(=O)Nc2ccc(S(=O)(=O)Nc3nc(C)cc(C)n3)cc2)cc1OC | 0.45 | x
CCC1CSC(=Nc2ccc(Cl)c(Cl)c2)N1C(=O)CCc1c(C)[nH]c(=O)c(C#N)c1C (stereo not drawn) | x | -0.35
Fc1ccc(CNCCN2CCOCC2)cc1 | -0.34 | -0.4
CCCCOC(=O)OC1CCS(=O)(=O)C1 (stereo not drawn) | x | -0.15
S=C(Nc1ccccc1Cl)N1CCOC1c1c[nH]c2ccccc12 (stereo not drawn) | 0.92 | -0.55
CC1c2[nH]c3ccccc3c2CCN1C(=S)Nc1ccccc1 (stereo not drawn) | -1.3 | 0.85
CCOC(=O)c1scnc1C | x | -0.25
N#Cc1cccc(NC(=O)Cn2ncc3c(=O)oc4ccccc4c32)c1 | -0.18 | 1.4
CC(OCc1ccccc1)C(NC(=O)c1cc(=O)n(-c2ccccc2)[nH]1)C(=O)OCc1ccccc1 (stereo not drawn) | 2.6 | x
CC12CCCC(C(N)=O)(CCC1)C2 | -1 | -0.85
CC(O)CNc1nc2ccccc2n1CC(=O)NC12CC3CC(CC(C3)C1)C2 (stereo not drawn) | x | -0.4
CCN(CC)C(=O)c1sc(N)c(C#N)c1C | 0.12 | -0.85
O=C(Nc1nnc(C(F)(F)F)s1)c1ccc(F)c(Cl)c1 | 0.02 | -0.05
Oc1ccccc1-c1cc2ccccc2[nH]1 | 67 | -2.3
Cc1noc(-c2ccccc2OCC(=O)O)n1 | x | -1.1
Cc1ccc(Cn2c(-c3ccc(Cl)nc3)nc3cc(C)c(C)cc32)cc1 | 1.8 | x
CCn1c(SCc2nc3ccccc3[nH]2)nnc1-c1ccccc1 | -0.44 | 0.3
CN(C)C(CNC(=O)C1CCCN1C(=O)c1cccs1)c1ccccc1 (stereo not drawn) | x | 1.1
O=C1CCC(C(=O)N[C@@H](Cc2ccccc2)c2nc3ccccc3[nH]2)=NN1 | x | -0.35
O=C(NN1C(=O)C2C3C=CC(C3)C2C1=O)C(O)c1ccccc1 (stereo not drawn) | -0.095 | -1.1
O=C(O)c1ccc(CN2C(=O)SC(Nc3ccccc3)C2=O)cc1 (stereo not drawn) | x | 0.1
COc1ccc(OCC(O)Cn2c(N3CCCCC3)nc3c2c(=O)n(C)c(=O)n3C)cc1 (stereo not drawn) | 0.33 | x
CCc1cc(CN)on1 | x | -0.7
CCc1ccc(C(=O)CSc2nnc3oc4ccc(S(=O)(=O)N(C)C)cc4n23)cc1 | x | 0.1
